HIV Env fusion – inhibitors of HIV Env-mediated cell fusion; HeLa-JRFL Env/CEM21 cell fusion, luciferase; inhibition, % at 12.3 µM; 360,000 compounds, 1.1% hits;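 active means mean replicate inhibition score of at least 50 and every replicate individually at or above 50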;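 further: 0% = plate neutral controls and 100% = maraviroc near 300 nM; one replicate is shown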
eIF4H inh – inhibitors of RNA binding by human eIF4H; eIF4H fluorescence polarization binding assay; 290,000 compounds, 0.94% hits; inhibition, % at 35 µM; Q15056; AID 2012;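 active means 50% or more with normal probe brightness, or confirmed in later tests; about a fifth of its hits are not listed in these tables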;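 further: calls also rest on retests at 20 µM and on dose response follow-up; 0% = protein and probe with vehicle and 100% = probe without protein; strong numbers were not always called active; many hits fall short of the cut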
Rce1 inh – inhibitors of yeast Ras-converting enzyme; Q03530; yeast membranes, quenched prenylated peptide cleavage fluorescence; calls only; 290,000 compounds, 0.27% hits; AID 2563;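 active means fall in fluorescence gain of 50% or more versus controls, with final raw signal at or below 3038400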;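 further: plate controls were neutral control wells for no effect and wells lacking membranes for full effect; tested at 10 µM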
MT1-MMP act inh – inhibitors of human MT1-MMP activation; HT1080 RFP-PRO-GFP cells, GFP/RFP ratio fluorescence, overnight; percent of plate control window, DMSO zero; GFP/RFP ratio change, % at 20 µM; 360,000 compounds, 0.061% hits;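 active means GFP/RFP ratio change of at least 30% with cell ATP level not reduced by more than half and red fluorescence within 50% of control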; further: strong numbers were not always called active
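Compound: 20 µM single dose, 1% DMSO / System: HT1080 RFP-PRO-GFP cells / Controls: DMSO and RFP-L50D-GFP cell wells / Read-out basis: GFP/RFP fluorescence ratio / Schedule: overnight compound exposure at 37 °C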
CSC inhib – blocks cancer stem cells. cancer stem cell-like cells viability, luminescence. inhibition, % at 7.5 µM. AID 2717. 300,000 compounds, 1.1% hits;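 active means mean at 75% or more and at least half the replicates too; tested in HMLE shEcad cells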;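 further: 0% = median of negative and 100% = median of positive control wells; the first replicate is given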
PABP FP inh – blocks human PABP binding to poly(A) RNA; P11940; fluorescence polarization; inhibition, % at 35 µM; 290,000 compounds, 1% hits;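 active means 50% or more with normal probe brightness, or confirmed in later tests; about a fifth of its hits are not listed in these tables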;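 further: calls also rest on retests at 20 µM and on dose response follow-up; controls were probe without protein and protein plus probe with vehicle; some compounds called inactive have numbers as strong as hits; many hits fall short of the cut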
Target sequence (P11940 whole entry, looked up): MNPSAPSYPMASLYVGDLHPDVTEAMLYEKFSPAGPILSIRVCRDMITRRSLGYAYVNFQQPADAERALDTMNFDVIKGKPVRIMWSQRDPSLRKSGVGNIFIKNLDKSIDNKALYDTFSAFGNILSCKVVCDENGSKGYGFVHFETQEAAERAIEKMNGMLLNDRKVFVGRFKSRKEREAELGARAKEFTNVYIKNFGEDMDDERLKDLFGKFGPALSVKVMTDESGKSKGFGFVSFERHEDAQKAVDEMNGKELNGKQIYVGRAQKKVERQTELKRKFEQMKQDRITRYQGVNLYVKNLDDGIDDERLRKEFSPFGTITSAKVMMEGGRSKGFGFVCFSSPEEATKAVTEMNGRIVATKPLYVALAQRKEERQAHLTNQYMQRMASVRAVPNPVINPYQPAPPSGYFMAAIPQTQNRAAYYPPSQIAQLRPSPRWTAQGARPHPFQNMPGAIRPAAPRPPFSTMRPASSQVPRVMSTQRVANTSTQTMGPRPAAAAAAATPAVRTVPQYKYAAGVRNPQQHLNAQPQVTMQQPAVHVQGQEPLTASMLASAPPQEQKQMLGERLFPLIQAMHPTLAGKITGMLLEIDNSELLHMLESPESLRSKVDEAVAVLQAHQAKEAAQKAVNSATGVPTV
Yeast UUG start – yeast start codon fidelity modulation | S. cerevisiae UUG-firefly luciferase reporter, luminescence/redox ratio | activity score, % at 18.7 µM | 350,000 compounds, 0.13% hits | AID 602363;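 active means replicate mean at a twofold rise or more, about +100% in these data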;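 further: firefly luciferase made from a UUG start codon reports start codon fidelity; reporter light over untreated wells divided by growth signal over untreated wells; some hits fall short of that in this replicate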
MT1-MMP act inh RFP – further read-out of MT1-MMP act inh, marked with its call; RFP signal change, %; measured here: RFP expression control read;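 0 = vehicle wells; hits needed this value within 50% of zero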
Starred values were filed as active, the others as inactive; i = inactive; . = no result given. Only part of the results is shown (hit frequency here may not be typical).

SMILES | HIV Env fusion | eIF4H inh | Rce1 inh | MT1-MMP act inh | MT1-MMP act inh RFP | CSC inhib | PABP FP inh | Yeast UUG start
O=C(NC1CCSC1=O)C1CCCCC1 (configuration not stated) | -4.1 | -6.4 | i | 2.9 | 4.8 | -4.2 | -8.6 | 5.6
Cc1nc2oc3ccc(F)cc3c(=O)c2cc1C(=O)NC(C)(C)C | -27.5 | -6.1 | i | 0.1 | 5.3 | 9.5 | 9.7 | -10.6
O=C(NC(=S)Nc1cc(-c2nc3ccccc3[nH]2)ccc1Cl)c1ccc2c(c1)OCO2 | -79.9 | 11.6 | i | -1.4 | -18.7 | 94.1* | -7.4 | -4.6
Cc1ccc(-c2csc3ncnc(Cl)c23)cc1 | -40.2 | 6.7 | i | -0.3 | 1.5 | -3.9 | 4.0 | -10.6
CCOC(=O)C1=C(C)Nc2ncnn2C1c1ccc2c(c1)OCO2 (configuration not stated) | . | 2.2 | i | 1.5 | 4.2 | -7.5 | -3.0 | -17.2
Cc1cc(NC(=O)c2cc([N+](=O)[O-])cc([N+](=O)[O-])c2)no1 | -10.4 | -0.1 | i | 3.8 | -0.9 | -3.5 | -2.6 | -16.3
NS(=O)(=O)c1ccc(CCNC(=O)Cn2c(=O)c3cccn3c3cccnc32)cc1 | -7.7 | 6.8 | i | -1.5 | 0.6 | -8.6 | 2.1 | -5.9
O=C(CCN1C(=O)c2ccccc2C1=O)CN1CCOCC1 | -4.6 | 4.0 | i | -1.5 | -1.3 | 5.1 | -1.5 | -11.5
CC1CCN(S(=O)(=O)c2cc(Cl)ccc2Br)CC1 | -7.5 | -3.0 | i | -2.9 | 2.3 | -8.2 | 8.6 | -2.4
C/C(=N/NC(=O)c1ccc2nc[nH]c2c1)c1cccs1 | -12.1 | -1.3 | i | -6.2 | -1.7 | 0.9 | 16.0 | .
Cc1ccc(C2(C)NC(=O)N(CC(=O)NNC(=O)c3ccccc3)C2=O)cc1 (configuration not stated) | . | . | . | 1.5 | 4.1 | -0.5 | . | 7.1
COCCn1c(SCC(=O)N2CCCCC2)nc2ccccc2c1=O | . | 1.7 | i | 1.4 | 0.0 | 3.9 | -2.0 | -3.4
O=C(CSc1nc2ccsc2c(=O)n1Cc1ccccc1)NCc1ccco1 | 19.6 | 2.0 | i | -2.2 | -5.3 | . | -0.4 | -9.6
CCCc1cc(C(=O)Nc2cc(OC)c(Cl)cc2OC)no1 | 12.3 | -5.8 | i | -5.1 | -1.1 | -13.2 | 3.2 | -1.3
CCn1c(SCC(=O)NC(C)C(C)C)nc2cc(S(=O)(=O)N3CCOCC3)ccc21 (configuration not stated) | -243.8 | -13.7 | i | -0.4 | 4.2 | -3.1 | -10.4 | 5.4
O=C(CC1Sc2ccccc2NC1=O)OC(C(=O)NCCc1ccccc1)c1cccnc1 (configuration not stated) | . | -12.0 | i | -0.4 | 0.8 | -4.0 | -3.9 | -5.2
O=C(O)CCC(=O)Nc1ccccc1C(=O)Nc1ccccc1 | -136.2 | -9.8 | . | 0.2 | -0.8 | -1.3 | 2.0 | -20.7
CC(C)c1ccc(/C=N/NC(=O)c2nnn(-c3nonc3N)c2CN(C)C2CCCCC2)cc1 | 5.5 | -10.8 | i | . | . | 16.3 | 9.2 | -16.4
COC(=O)C1=C[C@@H](C(=O)OC)[C@@H]2C3=C(C(=O)[C@]2(C)NC(=O)c2ccccc2)[C@H](C)n2c(=O)n(-c4ccccc4)c(=O)n2[C@@H]3C1 | 24.0 | . | i | 0.7 | 2.5 | 1.6 | . | 9.9
COc1ccc(C(C#N)N2CCC(c3ccccc3)=N2)cc1OC (configuration not stated) | -7.6 | 4.7 | i | -1.5 | -0.7 | 2.3 | -4.9 | .

Full records from above:
Results for O=C(NC(=S)Nc1cc(-c2nc3ccccc3[nH]2)ccc1Cl)c1ccc2c(c1)OCO2 : HIV Env fusion = -79.9; eIF4H inh = 11.6; Rce1 inh = i; MT1-MMP act inh = -1.4; MT1-MMP act inh RFP = -18.7; CSC inhib = 94.1*; PABP FP inh = -7.4; Yeast UUG start = -4.6
Results for COc1ccc(C(C#N)N2CCC(c3ccccc3)=N2)cc1OC (configuration not stated) : HIV Env fusion = -7.6; eIF4H inh = 4.7; Rce1 inh = i; MT1-MMP act inh = -1.5; MT1-MMP act inh RFP = -0.7; CSC inhib = 2.3; PABP FP inh = -4.9; Yeast UUG start = .
Results for CC(C)c1ccc(/C=N/NC(=O)c2nnn(-c3nonc3N)c2CN(C)C2CCCCC2)cc1 : HIV Env fusion = 5.5; eIF4H inh = -10.8; Rce1 inh = i; MT1-MMP act inh = .; MT1-MMP act inh RFP = .; CSC inhib = 16.3; PABP FP inh = 9.2; Yeast UUG start = -16.4

Going on with the list.
SMILES | HIV Env fusion | eIF4H inh | Rce1 inh | MT1-MMP act inh | MT1-MMP act inh RFP | CSC inhib | PABP FP inh | Yeast UUG start
Clc1ccc(CSc2nnc([C@@H]3CCCN3)o2)cc1 | . | -8.8 | i | 1.8 | 1.8 | 2.4 | 4.5 | 0.2
CCCCn1nnc(NC(=O)CC23CC4CC(CC(C4)C2)C3)n1 | . | 1.6 | i | -8.2 | -10.6 | -8.4 | 3.5 | -6.0
COc1cc2c(=O)n(Cc3ccccc3)c(=O)n(CC(=O)NCC3CCCO3)c2cc1OC (configuration not stated) | -13.3 | -2.8 | i | -1.9 | 2.2 | 10.9 | -4.1 | -12.2
O=C1CC(N2CCOCC2)=NN1c1ccc([N+](=O)[O-])cc1 | 6.2 | -8.1 | i | 3.6 | -2.7 | 21.8 | 2.0 | .
CC1(Cc2ccccc2OC(F)(F)F)C(=O)Nc2c(Cl)ccc(Cl)c21 (configuration not stated) | 9.5 | . | . | 0.2 | -5.2 | . | . | -3.1
CC(=O)Nc1ccc(S(=O)(=O)N2CCSC2c2ccco2)cc1 (configuration not stated) | -18.0 | -3.3 | i | -4.2 | -4.2 | 0.0 | -3.5 | .
N#Cc1c(F)cccc1N1CCOCC1 | . | -12.3 | i | 2.3 | 6.6 | -16.8 | 6.7 | 6.5
CCOc1ccc(S(=O)(=O)N2CC(=O)Nc3ccccc32)cc1C#N | -3.3 | -10.6 | i | -1.4 | 2.8 | -7.3 | 0.9 | -6.2
COc1cc(C(=O)NCC2CCCCC2)cc(OC)c1OC | 7.9 | -2.7 | i | -2.2 | 1.1 | -12.2 | 20.1 | -10.4
Cc1sc2ncnc(N3CCC(C(=O)Nc4ccc(S(N)(=O)=O)cc4)CC3)c2c1C | 21.6 | . | . | -20.6 | -17.9 | . | . | -14.0
CC1(C(=O)Nc2ccc3c(c2)OCO3)CC1(Cl)Cl (configuration not stated) | -120.0 | 4.9 | i | -0.2 | 3.6 | -12.8 | -5.0 | -10.7
O=C(NN1C(=O)c2ccccc2NC1c1ccoc1)c1ccc([N+](=O)[O-])cc1 (configuration not stated) | 16.3 | -7.0 | i | -1.5 | -1.8 | . | -5.8 | -4.2
CC(C)(C)C(=O)Nc1ccc(-c2nc3ccccc3c(=O)o2)cc1 | -25.0 | 5.4 | i | -8.5 | 0.0 | -10.1 | -7.6 | -15.1
Cc1cc(Nc2ccccc2)nn1C(=O)c1ccc([N+](=O)[O-])cc1 | . | 3.3 | i | 1.8 | 3.1 | 0.4 | 6.0 | 1.2
Cc1cnc(C(=O)N2CCN(S(=O)(=O)c3cccc(Br)c3)CC2)cn1 | 12.7 | . | . | 0.9 | -0.3 | -18.7 | . | 1.9
CCOc1ccccc1NC1=NCC(=O)N1Cc1ccc(F)cc1 | . | -4.3 | i | 2.7 | 5.0 | 1.2 | 14.0 | -20.9
S=C(NCc1ccccn1)Nc1ccccc1Cl | -4.2 | 4.8 | i | 0.0 | 3.7 | -13.9 | -6.0 | .
COc1ccc2nc(NC(=O)CCN3C(=O)c4ccccc4C3=O)sc2c1 | -31.9 | -12.4 | i | 5.4 | 1.1 | -5.2 | -3.0 | -11.9
O=C1OCC/C1=C\NCCCN/C=C1\CCOC1=O | -1.9 | . | . | 7.0 | 7.6 | . | . | -10.1
NC(=O)c1[nH]cnc1N=NN(CCO)Cc1ccccc1 | 5.9 | . | . | 1.9 | 3.2 | . | . | -30.1
CCC(=O)n1nc(NCc2ccccc2OC)nc1NCc1ccccc1OC | . | 0.2 | i | -8.1 | -10.2 | -6.8 | -11.5 | -14.1
CCc1ccc(NC(=S)N2CCC(NC(=O)C3CCCCC3)CC2)cc1 | -5.9 | -1.8 | i | -2.1 | -0.8 | 4.7 | -0.1 | .
COc1ccc(NC(=O)c2cc(-c3ccccn3)nc3c(C)cc(C)cc23)c(C)c1 | 12.5 | 10.3 | i | -5.0 | 1.8 | 0.9 | 4.0 | -12.0
CCOC(=O)c1c(NC(=S)NC(=O)c2ccc(Cn3cc(Cl)cn3)o2)sc2c1CCCCC2 | -87.6 | 0.9 | i | -7.4 | -6.9 | 8.5 | -1.0 | -8.2
O=C(Nc1nnc(CCN2CCOCC2)s1)C1CCCCC1 | . | -4.0 | i | 1.0 | -0.1 | -9.7 | 7.2 | 0.8
CCc1cc(-c2n[nH]c(=S)n2-c2cccc(C)c2)cs1 | -183.2 | -4.1 | . | -2.2 | -5.2 | -13.9 | -6.0 | .
COc1ccc(S(=O)(=O)NCCc2cn3nc(C)c(C)nc3n2)cc1C | 6.1 | 1.4 | i | 0.9 | 6.4 | -11.3 | 0.3 | -10.6
O=C(Nc1ccc(C(F)(F)F)cc1)c1csc(-c2ccncc2)n1 | 6.7 | -6.0 | i | 0.4 | -7.2 | -9.1 | -8.1 | .
CC(=O)c1c(C)[nH]c(C(=O)OCC(=O)c2c(N)n(C)c(=O)n(C)c2=O)c1C | . | 4.8 | i | . | . | -0.8 | 1.7 | .
CN1C(=O)N(CN2CCCCC2)C2C1N(C)C(=O)N2CN1CCCCC1 (configuration not stated) | . | 2.7 | i | 4.9 | 3.7 | 2.6 | 0.2 | -6.4
Cc1ccc(NC(=O)CN2C(=O)CC(C)S(=O)(=O)c3ccccc32)cc1 (configuration not stated) | -18.3 | -0.2 | i | 0.9 | 2.2 | -10.0 | -4.4 | 0.5
CC1(c2ccccc2Cl)NC(=O)N(CC(=O)Nc2ccc3c(c2)OCO3)C1=O (configuration not stated) | -0.2 | 5.7 | i | -0.8 | -7.1 | -0.3 | -8.7 | -9.7
CCCCC(=O)NS(=O)(=O)c1ccc(N=NN2CCCCC2)cc1 | . | -2.6 | i | 4.6 | 0.8 | 6.0 | -17.2 | -12.7
O=C(NC(=S)N1CCN(C/C=C/c2ccccc2)CC1)c1ccc(F)cc1 | 0.7 | -0.7 | i | 6.4 | -2.3 | 4.2 | 0.3 | -30.3
COc1ccc2c(c1)CCc1c(C(=O)NCC(C)C)noc1-2 | -243.0 | -0.5 | i | 2.5 | -3.4 | 8.9 | 1.1 | -20.3
CNC(=S)NNC(=O)c1sc2cc(C(F)(F)F)cnc2c1-c1cccnc1 | 7.4 | -4.9 | i | 7.2 | 4.6 | 2.6 | 6.0 | .
COc1ccc(C2CC(c3ccccc3)=NN2c2ccc(S(N)(=O)=O)cc2)cc1 (configuration not stated) | 0.9 | -20.2 | i | -5.7 | -3.0 | -13.9 | -5.4 | .
COc1cc2c(cc1OC)CN(CC(=O)Nc1ccccc1C(=O)NC1CC1)CC2 | -15.6 | . | . | -1.1 | -0.4 | -15.2 | . | 3.4
O=C(Nc1ccc(NC(=O)c2ccc3c(c2)OCCO3)cc1)c1ccccc1 | 10.7 | -1.2 | i | 0.7 | -2.0 | 10.5 | 2.0 | -9.1
O=C(CN1CCN(c2ccc(F)cc2)CC1)Nc1ccc2c(c1)OCCO2 | -0.4 | -0.4 | i | -3.0 | 3.1 | -12.7 | 9.1 | -19.4
Cc1ccc2nc(NC(=O)C3CCN(c4ncnc5sc(C)c(C)c45)CC3)sc2c1 | . | -19.9 | i | 4.0 | -5.8 | -2.8 | 4.8 | -14.9
O=C1CC(=O)C(n2cncn2)C(c2cccc(Cl)c2)C1 (configuration not stated) | -115.2 | 7.0 | i | 3.0 | 4.9 | -15.3 | -1.5 | -25.1
